# Compound activity deposited in PubChem BioAssay by SRMLSC.
# H5N1 antiviral – MDCK cell protection from H5N1 avian flu; cytopathic effect, luminescence, 72 h; hits give high values; no value below 0 was filed and about half of the inactive calls have no number; reference of the scale not given here; inhibition, % at 50 µM; 96,000 compounds, 0.07% hits; in the data active = inhibition above about 25%
# * hit, by the source's call; i = inactive. Not all compounds are listed. The share of hits here may be higher or lower than overall.
SMILES | H5N1 antiviral
O=C(Nc1ccc2oc(-c3ccc4ccccc4c3)nc2c1)c1cccs1 | i
CCOC(=O)CSc1nc2c(cnn2-c2ccc(C)cc2)c(=O)[nH]1 | 1.4
N#Cc1ccc(Oc2cc(C(F)(F)F)nc(-c3ccccn3)n2)cc1 | i
CCOC(=O)C(NC(=O)C1CCCN1C(=O)OCc1ccccc1)C(=O)OCC (stereo unspecified) | i
Cc1ccc2c(c1)sc1nc(=O)n(-c3cccc(Cl)c3)c(=O)n12 | i
C=CCSc1nnc(-c2cc(Br)ccc2N)c(=O)[nH]1 | 1.7
CCCn1c(=O)c2c(nc(Br)n2CCC)n(C)c1=O | 1.2
Cc1ccc(Cn2ncn3c(cc4ccccc43)c2=O)cc1 | 0.4
CCOC(=O)N1CCN(C(=O)c2ccc(N(Cc3ccccc3)S(C)(=O)=O)cc2)CC1 | i
Cn1c(SCC(=O)N2c3ccccc3Sc3ccccc32)nnc1-c1ccco1 | 1.4
CCN(c1ccc(C)c(C)c1)S(=O)(=O)c1c(C)[nH]c(=O)[nH]c1=O | 0.2
CCC(C)(C(=O)NC1CCCCC1)N(Cc1ccco1)C(=O)Cc1cccs1 (stereo unspecified) | i
CC(C)NC(=O)NC(=O)CSc1ncc(C(F)(F)F)cc1Cl | 1.1
CNc1c(N)n(Cc2ccccc2)c(=O)[nH]c1=O | 0.4
CS(=O)(=O)N(CC(=O)N1CCCCCC1)Cc1ccc(Cl)cc1 | 0.9
C=CCOc1c(Br)cc(CNc2ccc(NC(=O)CCC)cc2)cc1OCC | i
O=S(=O)(Nc1ccc2c(c1)nc1n2CCOC1)c1ccccc1 | 0.3
O=C(CCCN1C(=O)c2ccccc2C1=O)Nc1nccs1 | i
Cc1cccc(NC(=O)CC2SC(=O)N(c3ccccc3)C2=O)c1 (stereo unspecified) | 0.3
CC(NC(=O)Cn1cc(C(=O)C2CC2)c2ccccc21)c1ccccc1 (stereo unspecified) | i
O=C(CSc1nnnn1-c1ccccc1)Nc1nsc(-c2ccccc2)n1 | 3.7
O=C(Oc1ccc(-c2cnc3ccccc3n2)cc1)c1cc([N+](=O)[O-])ccc1Cl | 3.7
O=C(Cn1c(=O)oc2cc(S(=O)(=O)N3CCCC3)ccc21)Nc1ccc(C(F)(F)F)cc1 | i
Cc1nn(C(=O)Cn2ccc([N+](=O)[O-])n2)c(C)c1Br | i
O=S(=O)(/C=C/c1ccccc1)N1CCN(c2ccccc2)CC1 | 1.6
CCC(Sc1nc2sc(C(=O)OC)c(C)c2c(=O)n1N)C(=O)NCC1CCCO1 (stereo unspecified) | 0.4
Nc1ccc(-n2nncc2-c2ccco2)cc1 | 0.2
CCOC(=O)N1CCN(C(=O)CSc2nc3c(cnn3-c3ccc(Cl)cc3)c(=O)[nH]2)CC1 | 3.2
O=C(CSc1ncn[nH]1)Nc1ccc(Br)cc1F | 1.4
CCOC(=O)c1csc(NC(=O)C(C)(C)C)n1 | 0.9
CC(NC(=O)CCSc1nc(-c2ccco2)cc(C(F)(F)F)n1)c1ccccc1 (stereo unspecified) | 0.1
CCOC(=O)c1csc(NC(=O)c2ccc(S(=O)(=O)N3CCCC3)cc2)n1 | i
Cc1ccc(-n2nnc3c(=O)n(Cc4ccccc4C)cnc32)cc1 | 0.2
Cc1[nH]c(=O)[nH]c(=O)c1NC(=O)c1cccs1 | 0.1
COc1ccc(/C=C/C(=O)NC(C)C)cc1Br | 0.1
Cc1cccc(N(CC(O)CN(C)C)S(=O)(=O)c2ccccc2)c1 (stereo unspecified) | 0.8
Cc1nc(SCC(=O)c2ccccc2)c(C#N)c(-c2ccco2)c1C(=O)NCc1ccco1 | 0.8
Cc1cc2n(n1)C(c1ccc3c(c1)OCO3)Nc1ccccc1-2 (stereo unspecified) | i
CCOc1ccc2[nH]c(=O)c(CN(CC3CCCN3CC)C(=O)NCc3ccccc3)cc2c1 (stereo unspecified) | i
COCCNC(=O)c1ccc2c(=O)n(CCOC)c(=O)[nH]c2c1 | i
O=C(O)C1CC(=O)N(C2CCCCC2)C1c1ccccc1 (stereo unspecified) | i
Cn1c(=O)n(C)c2cc(S(=O)(=O)O)ccc21 | i
Cc1ccc(-c2nn(CC(=O)Nc3cccnc3)c(=O)c3ccccc23)cc1 | 0.2
Cc1ccc2nc(N3CCN(Cc4nnnn4Cc4ccccc4)CC3)c(C#N)cc2c1 | 1.0
Cc1nnc(SCC(=O)Nc2nccs2)[nH]c1=O | i
COc1ccc(Cc2nnc(NC(=O)c3ccc(Cl)c([N+](=O)[O-])c3)s2)cc1 | i
CCc1cc2c(NCC(=O)O)ncnc2s1 | 0.4
COC(=O)c1cccc(S(=O)(=O)N(Cc2ccco2)Cc2cc3ccc(OC)cc3[nH]c2=O)c1 | i
CC(=O)C1C(c2ccc(Cl)cc2)NC(=O)NC1(O)C(F)(F)F (stereo unspecified) | 0.2
Cc1cc(C)cc(N(CC(=O)N2CCc3ccccc32)S(=O)(=O)c2c(C)noc2C)c1 | 0.4

# Remaining list, next part
SMILES | H5N1 antiviral
CCCNC(=O)C1CCN(S(=O)(=O)c2ccc3nc4c(c(C(=O)O)c3c2)CCCCC4)CC1 | 2.1
CCOC(=O)N1CCN(C(=O)c2ccccc2NC(=O)COc2ccccc2C)CC1 | i
O=C(O)CCCNc1ccc(S(=O)(=O)Nc2ccccc2C(=O)O)cc1C(=O)O | 0.7
CCOc1ccccc1C(=O)N(CN1CCCC1=O)c1ccc(C)c(Cl)c1 | i
Cc1nn(C)c(C)c1NC(=O)CSc1nnc(C)n1-c1ccccc1 | 1.0
Cc1cc2cc(CCNS(C)(=O)=O)c(=O)[nH]c2cc1C | 0.6
Cc1cc(C)n(Cc2ccc(C(=O)O)cc2)n1 | 0.6
COc1ccccc1/C=C/CN1CC(C)OC(C)C1 (stereo unspecified) | 0.7
CP(=O)(COC(=O)c1ccccc1)COC(=O)c1ccccc1 | i
Cn1c(-c2c(N)n(CCCc3ccccc3)c3nc4ccccc4nc23)nc2ccccc21 | 0.3
Cc1cc(N/C=C2\CCCCC2=O)no1 | 0.5
CCCC(=O)n1nc(-c2cccnc2)nc1N | 2.9
CSC(=NC#N)N1CCN(c2ccccc2)CC1 | 0.3
O=[N+]([O-])c1ccc(N2CCN(S(=O)(=O)c3ccccc3)CC2)cc1NCc1cccnc1 | 3.3
CC1CC(C)CN(S(=O)(=O)c2ccc(NC(=O)C3COc4ccccc4O3)cc2)C1 (stereo unspecified) | 6.9
COc1ccc(C2C3=C(OC(C)=O)c4ccccc4C3=Nc3c2c(=O)n(C)c(=O)n3C)cc1 (stereo unspecified) | i
Cc1ccccc1Nc1nc(-c2sc(NC(=O)c3ccccc3)nc2C)cs1 | i
CCOC(=O)c1ccc(NC(=O)N2CCN(C3CCCCC3)CC2)cc1 | i
Fc1ccc(NCc2cccnc2)cc1F | 0.5
Cc1cc(C)n(CCOc2nonc2N)n1 | i
O=C(CN1CCC(Cc2ccccc2)CC1)Nc1ccc2c(c1)OCCO2 | i
CC1(C)Cc2c(sc3nc(NCCN4CCOCC4)n4ncnc4c23)CO1 | 1.6
O=C(O)CCN1C(=O)CC2(CCCCC2)C1=O | 0.0
COC(=O)c1cc(C#N)c(Oc2ccc(F)cc2)nc1C | 0.7
COc1ccccc1CNc1ccc(C(=O)O)cc1 | i
Cc1cc(OCC(=O)O/N=C(\N)Cc2cccs2)ccc1Br | i
O=C(CCN1C(=O)COc2ccccc21)NCCN1CCOCC1 | i
CC(C)C(=O)Nc1c2c(nc3c1CCC3)CCCC2 | i
Cc1ccccc1-c1ccc(=O)n(CC(=O)Nc2ccc(C(=O)N3CCCC3)cc2)n1 | i
COCCOC(=O)C1=C(C)NC(=O)NC1C1CC=CCC1 (stereo unspecified) | 0.5
COc1ccccc1-c1nc2s/c(=C\c3cccs3)c(=O)n2n1 | 0.3
CCCOP(=O)(O)c1c([N+](=O)[O-])cc(C(F)(F)F)cc1[N+](=O)[O-] (tested in a mixture with another compound) | i
COc1ccc(N(CC(=O)N/N=C/c2ccc(-c3ccc([N+](=O)[O-])cc3)o2)S(=O)(=O)c2ccc(C)cc2)cc1Cl | i
O=C1C=C(NC2CC2)C2(CCCCC2)O1 | 0.1
COc1cccc(N(CC(=O)Nc2ccccc2C)S(C)(=O)=O)c1 | 1.8
CCOC(=O)N1CCN(Cc2cc(=O)oc3ccc4ccccc4c23)CC1 | 1.1
CC(C)NC(=O)C1(O)c2ccccc2NC(=O)N1c1ccc(Cl)c(Cl)c1 (stereo unspecified) | 2.4
O=C(Nc1nonc1NC(=O)C1CCCCC1)C1CCCCC1 | 0.6
CN(C)c1ccc(/C=N/Nc2ccc(-n3ccnc3)nn2)cc1 | 0.5
CCN1CCN(c2ccc(NC(=O)COc3ccccc3Cl)cc2)CC1 | 0.3
CCCCn1nnnc1SCC(=O)NCc1ccccc1 | i
OCC1(CO)COC(c2cccnc2)N1 (stereo unspecified) | i
O=C(CSCc1ccccc1Cl)NNC(=O)c1ccccc1 | 1.2
Cc1c(Cl)c([N+](=O)[O-])nn1CCCC(=O)Nc1sc2c(c1C#N)CCC2 | 1.1
COc1ccc(C)cc1N(CC(=O)O)S(=O)(=O)c1ccc(C)cc1 | i
CN(C)c1ccc(C(CC(=O)O)NC(=O)c2ccc(Cl)cc2)cc1 (stereo unspecified) | 0.6
CCSc1nc2c(c(=O)[nH]c(=O)n2C)n1C | 1.1
COc1ccc(-c2cc(C(F)(F)F)nc(S(C)(=O)=O)n2)cc1OC | i
Cc1ccccc1OCc1nc2c3cnn(C)c3ncn2n1 | 0.0
CCCOC(=O)Nc1ccc(N2CCCCC2)cc1 | i

# Molecules shown so far containing two or more sulfur atoms (7):
SMILES | H5N1 antiviral
Cn1c(SCC(=O)N2c3ccccc3Sc3ccccc32)nnc1-c1ccco1 | 1.4
O=C(CSc1nnnn1-c1ccccc1)Nc1nsc(-c2ccccc2)n1 | 3.7
CCC(Sc1nc2sc(C(=O)OC)c(C)c2c(=O)n1N)C(=O)NCC1CCCO1 (stereo unspecified) | 0.4
CCOC(=O)c1csc(NC(=O)c2ccc(S(=O)(=O)N3CCCC3)cc2)n1 | i
Cc1nnc(SCC(=O)Nc2nccs2)[nH]c1=O | i
Cc1ccccc1Nc1nc(-c2sc(NC(=O)c3ccccc3)nc2C)cs1 | i
COc1ccccc1-c1nc2s/c(=C\c3cccs3)c(=O)n2n1 | 0.3

# An excerpt from further up, as a working copy:
SMILES | H5N1 antiviral
Cc1cc(OCC(=O)O/N=C(\N)Cc2cccs2)ccc1Br | i
O=C(CCN1C(=O)COc2ccccc21)NCCN1CCOCC1 | i

# Following part:
canonical_smiles | H5N1 antiviral
COc1ccc(Cn2c(C)c(C)c(C#N)c2NC(=O)Nc2ccc(Cl)cc2)cc1 | i
Clc1cccc(N2CCN(Cc3nc(-c4ccccc4)no3)CC2)c1 | i
CCOC(=O)CNC(=O)CN1C(=O)CCSc2ccccc21 | i
CSc1nc(Oc2ccc(=O)n(C)n2)nc(N(C)C)n1 | 2.3
CS(=O)(=O)N(CC(=O)N1CCN(c2ccccc2)CC1)c1cc(C(F)(F)F)ccc1Cl | 2.7
COc1ccc2oc(=O)c(-c3nnc(NCc4ccco4)s3)cc2c1 | i
NC(=O)c1ccsc1NC(=O)COC(=O)c1ccccc1NCc1ccco1 | 1.8
CCC(C(=O)N1CC2(C)CC1CC(C)(C)C2)N1C(=O)c2ccccc2C1=O (stereo unspecified) | i
Cc1nn(Cc2ccc(C(=O)NC(C)(C)C)o2)c(C)c1Br | i
CCn1c(SCC(=O)Nc2cccc(F)c2)nnc1-c1cc2cc(Br)ccc2o1 | 0.9
COC(=O)c1cccc(NS(=O)(=O)c2cccs2)c1C | i
N#Cc1nc(COc2ccccc2Cl)oc1NCc1ccco1 | 0.4
CC(C)(C)n1ncc2c(=O)n(CC(=O)N3CCN(c4ccccc4)CC3)cnc21 | i
CC1CN(S(=O)(=O)c2cccc(C(=O)NCCCn3ccnc3)c2)CC(C)O1 (stereo unspecified) | 0.2
COc1cccc(-c2nn(-c3ccccc3)cc2C(=O)Nc2nccs2)c1 | i
Cn1cnnc1SCC(=O)c1ccc2c(c1)OCCO2 | 0.4
COC(=O)CCP(=O)(O)Cc1ccccc1CP(=O)(O)CCC(=O)OC | 1.9
O=C(Nc1ccc(S(=O)(=O)N2CCCC2)cc1)C1COc2ccccc2O1 (stereo unspecified) | 0.1
COc1ccccc1C(=O)Nc1c2c(nn1-c1cccc(C)c1C)CS(=O)(=O)C2 | 2.1
COc1ccc(-c2cccc(C(=O)Nc3ccc(C)cc3)c2)cc1 | i
CCC(=NC(CC)CO)C1=C(O)CC(C)(C)CC1=O (stereo unspecified) | 0.4
COC(=O)c1c(-c2ccc3ccccc3c2)csc1NC(=O)Cc1ccc(OC)c(OC)c1 | 0.6
CC(C)NS(=O)(=O)c1ccc2c(c1)oc(=O)n2C | i
Cc1cnc(NC(=O)c2c(O)c3cccc4c3n(c2=O)CCC4)s1 | i
Cn1cccc1/C=N/n1cnnc1 | i

# Compounds shown so far with a tert-butyl group:
canonical_smiles | H5N1 antiviral
CCOC(=O)c1csc(NC(=O)C(C)(C)C)n1 | 0.9
Cc1nn(Cc2ccc(C(=O)NC(C)(C)C)o2)c(C)c1Br | i
CC(C)(C)n1ncc2c(=O)n(CC(=O)N3CCN(c4ccccc4)CC3)cnc21 | i

# Remaining list, next part
canonical_smiles | H5N1 antiviral
Cc1nn(Cc2ccc(Cl)cc2)c(C)c1NC(=O)Cn1nc([N+](=O)[O-])c(Cl)c1C | i
Cc1cc(C(=O)N2CCN(c3ncccn3)CC2)c(C)o1 | i
Cc1ccc(-n2c(SCC(=O)NCc3ccco3)nc3sc4c(c3c2=O)CC(C)(C)SC4)cc1 | i
Cc1ccc(NC(=O)N2CCCN(Cc3ccc(F)cc3)C2)cc1C | i
Clc1ccc(SCc2cc(-c3ccccc3)no2)cc1 | i
C=CCn1c(SCC(=O)c2ccc(NS(=O)(=O)c3ccccc3)cc2)nnc1-c1cccs1 | i
CC(C)C(=O)Nc1ccc(NC(=S)NC(=O)c2ccc([N+](=O)[O-])cc2)cc1 | 0.4
Cc1[nH]c2ccccc2c1C(=O)Cn1c(=O)oc2ccccc21 | 0.7
CCOC(=O)C(C(=O)N1CCOCC1)C1CCCCC1 (stereo unspecified) | 0.1
CCOC(=O)CN(C(=O)CSc1nnc2c(n1)[nH]c1ccc(F)cc12)c1ccccc1 | 0.8
O=C(Nc1ccc(Cl)cn1)c1ccc(COCC(F)(F)C(F)F)o1 | i
O=C(COc1ccc2ccccc2c1Br)Nc1ncn[nH]1 | 0.3
O=S(=O)(Nc1cccc(-c2nc3cccnc3s2)c1)c1ccc2c(c1)OCCO2 | i
